TRPV1 potentiator: enhances activation of the human vanilloid receptor TRPV1; TRPV1-expressing cells, Fluo-8 calcium influx, capsaicin EC20 potentiation; host cell line not named in the record; control for the full effect not named in the record; potentiation, % at 8.33 µM; 320,000 compounds, 0.02% hits; Q8NER1; active means potentiation above 80%; inconclusive means 30% to 80%; inactive means below 30%; further: 0% is about no effect
Target sequence (Q8NER1 whole entry, looked up): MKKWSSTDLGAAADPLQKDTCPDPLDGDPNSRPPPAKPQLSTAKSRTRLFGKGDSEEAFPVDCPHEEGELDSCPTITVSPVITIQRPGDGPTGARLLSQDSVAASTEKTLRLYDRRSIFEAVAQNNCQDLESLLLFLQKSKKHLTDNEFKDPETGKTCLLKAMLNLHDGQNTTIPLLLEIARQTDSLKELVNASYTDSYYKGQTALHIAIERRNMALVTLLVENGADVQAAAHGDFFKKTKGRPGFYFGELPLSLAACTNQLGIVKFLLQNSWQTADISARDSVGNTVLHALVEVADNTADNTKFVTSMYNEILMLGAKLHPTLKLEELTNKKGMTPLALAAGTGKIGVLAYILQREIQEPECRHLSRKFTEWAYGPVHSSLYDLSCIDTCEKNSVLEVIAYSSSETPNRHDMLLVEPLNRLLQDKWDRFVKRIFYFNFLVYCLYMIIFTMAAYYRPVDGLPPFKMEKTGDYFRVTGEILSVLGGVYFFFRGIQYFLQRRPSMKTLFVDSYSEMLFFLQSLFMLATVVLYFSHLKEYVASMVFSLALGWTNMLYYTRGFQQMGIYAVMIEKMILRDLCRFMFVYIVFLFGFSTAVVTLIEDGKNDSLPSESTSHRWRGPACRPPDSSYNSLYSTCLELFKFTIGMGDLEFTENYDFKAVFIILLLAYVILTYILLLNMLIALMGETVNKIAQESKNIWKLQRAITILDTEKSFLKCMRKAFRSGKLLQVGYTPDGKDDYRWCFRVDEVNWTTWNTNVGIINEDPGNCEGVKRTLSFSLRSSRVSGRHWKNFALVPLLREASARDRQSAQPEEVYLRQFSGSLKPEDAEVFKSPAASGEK
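Cells expressing TRPV1 were dye-loaded with Fluo-8 and read kinetically: 10 s baseline, 3 min after compound (agonist portion), then 2 min after EC20 capsaicin (allosteric enhancer portion). Calcium-bound dye fluorescence at 480/520 nm.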
CtBP-E1A inh: blocks the CtBP interaction with E1A | AlphaScreen GST-E1A/His-CtBP binding, 1536-well; hits give low values; control for the full effect not named in the record | activity change, % (no concentration beside the values) | 340,000 compounds, 0.49% hits; in the data active means activity change below about -65%; inconclusive means about -30% to -65%; inactive means above about -30%; further: on the % scale 0 is the no-effect control and ±100 the full control effect
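GST-E1A and His-tagged CtBP (125 nM each as 5X stock) were preincubated with pin-transferred compound for 2 h at 37 °C in the dark, then glutathione donor and nickel acceptor beads were added for 1 h before AlphaScreen reading.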
TRPML1 blocker: human mucolipin-1 channel inhibition; AID 624415; activity change, negative = inhibition, % (test concentration not listed); TRPML1-inducible cells, Ca2+ dye fluorescence, FDSS; hits give low values; inhibition of EC80 agonist-evoked calcium signal; 390,000 compounds, 0.02% hits; in the data active means activity change below about -50%; inconclusive means about -30% to -50%; inactive means above about -30%;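 further: stimulus is agonist 54-4 at its EC80 concentration; on the % scale 0 is the no-effect control and ±100 the full control effect; compound concentration not given in the record; the text of the record puts the active cut at -80%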
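TRPML1-DL cells, Tet-induced overnight (~16 h, 37 °C) at 1,500 cells/well, were loaded with Ca8 no-wash dye plus quencher for 45-90 min at room temperature. Compounds were pinned during FDSS kinetic reading; agonist 54-4 at EC80 (4 uM final) then added.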
Six1-Eya2 inh: Six1/Eya2 interaction inhibition | Q15475+O00167 | AlphaScreen GST-Six1/His-Eya2 binding, biochemical; hits give low values; control for the full effect not named in the record | activity change, % (concentration not given with the values) | 360,000 compounds, 0.56% hits; in the data active = activity change below about -65%; inconclusive = about -30% to -65%; inactive = above about -30%; further: on the % scale 0 is the no-effect control and ±100 the full control effect
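Homogeneous AlphaScreen proximity assay pairing GST-Six1 with His-tagged Eya2 (added as 5X mix: 250 nM and 500 nM) in 50 mM Tris pH 8.0, 300 mM NaCl, 1 mM TCEP. Glutathione donor and nickel acceptor beads; 1 h, 37 °C, dark.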
D2 PAM: human D2 receptor positive allosteric modulation | P14416 | AID 624464 | potentiation, % (test concentration not listed) | 360,000 compounds, 0.23% hits | DiscoveRx D2 beta-arrestin cells, luminescence, 90 min; 100% = 57 uM dopamine signal; active = potentiation of 50% or more; inconclusive = 30% to 50%; inactive = 30% or less;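 further: compound concentration not given in the record; tested on top of an EC20 dose of dopamine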
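PathHunter beta-arrestin assay in DiscoveRx D2 cells. Compounds were added with an EC20 of dopamine (50 nM final) for 90 min at 37 deg C. Luminescence was read 1 h after detection reagent, with 57 uM dopamine as the EC100 control.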
TRPML1 ag: agonists of human TRPML1 channel; Q9GZU1; TRPML1-expressing cells, Ca2+ dye fluorescence, FDSS; host cell line not named in the record; reference of the full effect not given here; activation, % (no concentration beside the values); 410,000 compounds, 0.12% hits; in the data active = activation above about 50%; inconclusive = about 30% to 50%; inactive = below about 30%; further: 0% is about no effect; the text of the record puts the active cut at 80%
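Tetracycline-induced TRPML1-DL cells are seeded and incubated overnight before loading with a no-wash Ca2+ dye and quencher. Agonist activity is taken from the 110 s fluorescence read following compound pin-transfer on an FDSS, before EC80 54-4 challenge.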
Numbers without * were called inactive; ? = inconclusive; / = no result given.

molecule,TRPV1 potentiator,CtBP-E1A inh,TRPML1 blocker,Six1-Eya2 inh,D2 PAM,TRPML1 ag
C=C(C)C(=O)Nc1cccc(C2=NOC3(C2)C[C@H](C(N)=O)N(C(=O)c2ccccc2)C3)c1 (stereo partly drawn),-26,/,14,-15,-6,0.9
CCC1CCCCN1CCCNC(=O)c1cn(CC(C)C)c(=O)c2cc(OC)c(OC)cc12 (stereo not drawn),?,-14,-12,-12,-7,0.4
COc1ccc(-c2nc3ccccn3c2C=O)cc1,9,-3,-7,0,-22,1.1
COc1ccc(NC(=S)NC2CCS(=O)(=O)C2)cc1 (stereo not drawn),0,7,-11,2,-1,0.7
O=C(COC(=O)c1cccnc1Cl)c1ccccc1,?,7,13,1,-9,0.6
COc1cc(-c2nc(CN3CCCN(C(=O)c4ccco4)CC3)c(C)o2)ccc1F,4,0,-14,2,-20,0.7
COc1cc([N+](=O)[O-])ccc1NC(=O)NN1CCN(C)CC1,16,-7,0,10,-13,1.5
Cc1cc(C(=O)COC(=O)c2ccc[nH]c2=O)c(C)n1CCc1ccc(F)cc1,7,2,13,4,-2,0.9
CN(CC(=O)Nc1ccc(Cl)cc1)C(=O)c1ccc(NS(=O)(=O)c2ccc3[nH]c(=O)[nH]c3c2)cc1,-8,-26,2,-3,-26,0.0
CCCCCc1ccc(S(=O)(=O)Nc2cc(C)ccn2)cc1,11,-2,-14,-13,-14,0.3
CCNC(=O)NC(=O)CSc1ccc(S(=O)(=O)N2CCCCC2)cn1,-9,7,8,-1,-6,0.5
COc1cc(CC(=O)NCC(C)(C)N2CCOCC2)cc(OC)c1OC,3,5,10,0,3,0.6
CC(C)Oc1ccc(/C(O)=C2/C(=O)C(=O)N(CCCn3ccnc3)C2c2cccnc2)cc1 (stereo not drawn),2,-1,-14,2,14,0.4
COCCCNC(=O)c1ccccc1SC,9,6,-14,1,-5,0.3
COc1ccc(C(=O)Nc2ccnn2C2CCN(C3CCC3)CC2)cc1,6,-8,-6,-1,-27,-1.0
Cc1c(/C=N/NC(=O)c2ccc3c(c2)OCO3)cnn1C,4,-5,-12,1,-16,0.5
O=C(O)c1cccc(C(=O)Cc2ccccc2)c1,-9,19,-11,8,1,-0.9
CC1CCCN(C(=S)Nc2ccc(F)cc2)C1 (stereo not drawn),7,3,10,2,-6,0.6
O=C(NCc1ccccn1)C(=O)Nc1cc2c3c(c1)CC(=O)N3CCC2,-5,5,7,-9,-13,0.1
CCOC(=O)C1C(c2ccccc2O)NC(=O)NC1(O)C(F)(F)F (stereo not drawn),22,0,-18,5,-2,-0.1

A draw from above in order of SMILES length, lowest first.
molecule,TRPV1 potentiator,CtBP-E1A inh,TRPML1 blocker,Six1-Eya2 inh,D2 PAM,TRPML1 ag
COCCCNC(=O)c1ccccc1SC,9,6,-14,1,-5,0.3
CC1CCCN(C(=S)Nc2ccc(F)cc2)C1 (stereo not drawn),7,3,10,2,-6,0.6
O=C(COC(=O)c1cccnc1Cl)c1ccccc1,?,7,13,1,-9,0.6
CCCCCc1ccc(S(=O)(=O)Nc2cc(C)ccn2)cc1,11,-2,-14,-13,-14,0.3
Cc1c(/C=N/NC(=O)c2ccc3c(c2)OCO3)cnn1C,4,-5,-12,1,-16,0.5
COc1ccc(C(=O)Nc2ccnn2C2CCN(C3CCC3)CC2)cc1,6,-8,-6,-1,-27,-1.0
COc1cc([N+](=O)[O-])ccc1NC(=O)NN1CCN(C)CC1,16,-7,0,10,-13,1.5
CCNC(=O)NC(=O)CSc1ccc(S(=O)(=O)N2CCCCC2)cn1,-9,7,8,-1,-6,0.5
O=C(NCc1ccccn1)C(=O)Nc1cc2c3c(c1)CC(=O)N3CCC2,-5,5,7,-9,-13,0.1
COc1cc(-c2nc(CN3CCCN(C(=O)c4ccco4)CC3)c(C)o2)ccc1F,4,0,-14,2,-20,0.7
Cc1cc(C(=O)COC(=O)c2ccc[nH]c2=O)c(C)n1CCc1ccc(F)cc1,7,2,13,4,-2,0.9
CCC1CCCCN1CCCNC(=O)c1cn(CC(C)C)c(=O)c2cc(OC)c(OC)cc12 (stereo not drawn),?,-14,-12,-12,-7,0.4
CC(C)Oc1ccc(/C(O)=C2/C(=O)C(=O)N(CCCn3ccnc3)C2c2cccnc2)cc1 (stereo not drawn),2,-1,-14,2,14,0.4
C=C(C)C(=O)Nc1cccc(C2=NOC3(C2)C[C@H](C(N)=O)N(C(=O)c2ccccc2)C3)c1 (stereo partly drawn),-26,/,14,-15,-6,0.9
CN(CC(=O)Nc1ccc(Cl)cc1)C(=O)c1ccc(NS(=O)(=O)c2ccc3[nH]c(=O)[nH]c3c2)cc1,-8,-26,2,-3,-26,0.0

(further entries)
molecule,TRPV1 potentiator,CtBP-E1A inh,TRPML1 blocker,Six1-Eya2 inh,D2 PAM,TRPML1 ag
CSc1ccc(-c2sc(Nc3ccccc3)n[n+]2-c2ccccc2)cc1,13,-28,33,?,-11,0.5
CCN1C(=O)[C@H]2[C@@H](c3ccc(-c4ccc(C(C)=O)cc4)cc3)N[C@@](Cc3ccccc3)(C(=O)OC)[C@H]2C1=O,-12,-4,-22,-8,4,1.8
COc1cc(F)ccc1-c1csc(C(C)(O)c2ccccc2)n1 (stereo not drawn),/,2,16,8,-2,1.4
O=C(CSc1ccc([N+](=O)[O-])cn1)Nc1ccc(N2CCOCC2)cc1,5,3,-10,8,-9,0.1
COc1cc(-c2noc(C3CCCN(S(=O)(=O)c4cccc(Cl)c4)C3)n2)cc(OC)c1OC (stereo not drawn),3,-10,62,-13,11,1.6
O=C(NCCOc1ccccc1)c1cc(S(=O)(=O)N2CCOCC2)ccc1F,-14,/,-16,15,-4,0.4
CCN=C1S/C(=C\c2cn(CC(=O)NCc3ccco3)c3ccccc23)C(=O)N1CC,-9,3,-1,-4,-4,-0.3
Cc1ccc2c(c1)N1C(=O)c3ccccc3C1C1=C(CC(C)(C)CC1=O)N2 (stereo not drawn),-4,-5,-3,-2,-10,3.8
Cc1ccc(NC(=O)C2CC(=O)n3ncnc3N2)cc1 (stereo not drawn),-1,7,-2,0,4,-0.3
COc1ccc(CN2CCNC(=O)C2CC(=O)NCCc2nc(C)c3c(n2)CCC3)cc1C (stereo not drawn),-2,2,0,0,-5,-0.5
CCOc1ccc(C2C(C#N)=C(C)NC3=C2C(=O)c2ccccc23)cc1 (stereo not drawn),2,13,6,-3,-17,-0.3
Cc1cccc(NC(=O)c2cccc(NC(=O)c3ccccc3)c2)n1,23,1,15,-6,-9,-0.4
CCC12CCCN3CCC4(C(=C(C(=O)OC)C1)Nc1ccccc14)C32 (stereo not drawn),-4,0,7,-20,7,1.6

In a second layout: two of the compounds above.
The line under a structure holds: TRPV1 potentiator | CtBP-E1A inh | TRPML1 blocker | Six1-Eya2 inh | D2 PAM | TRPML1 ag
- CCCCCc1ccc(S(=O)(=O)Nc2cc(C)ccn2)cc1
 : 11 | -2 | -14 | -13 | -14 | 0.3
- Cc1ccc2c(c1)N1C(=O)c3ccccc3C1C1=C(CC(C)(C)CC1=O)N2 (stereo not drawn)
 : -4 | -5 | -3 | -2 | -10 | 3.8

Screening data: PubChem BioAssay, National Center for Advancing Translational Sciences (NCATS)
